Assay outcomes (PubChem)
eIF4H inh: inhibitors of RNA binding by human eIF4H | eIF4H fluorescence polarization binding assay | AID 2012 | 290,000 tested, 0.94% active | inhibition, % at 35 µM | Q15056;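 active = 50% or more with normal probe brightness, or confirmed in later tests; inconclusive = above 50% with abnormal brightness, or retests that disagree; inactive = below 50% or failed in later tests; about a fifth of its hits are not listed in these tables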;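 also: calls also rest on retests at 20 µM and on dose response follow-up; 0% = protein and probe with vehicle and 100% = probe without protein; strong numbers were not always called active; many hits fall short of the cut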
Rce1 inhib: blocks yeast Ras-converting enzyme. AID 2563. 290,000 tested, 0.27% active. Q03530. calls only. yeast membranes, quenched prenylated peptide cleavage fluorescence;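 active = fall in fluorescence gain of 50% or more versus controls, with final raw signal at or below 3038400; inconclusive = same 50% fall but final raw signal above 3038400; inactive = fall in fluorescence gain under 50%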;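 also: plate controls were neutral control wells for no effect and wells lacking membranes for full effect; tested at 10 µM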
Target sequence (Q03530 whole entry, looked up): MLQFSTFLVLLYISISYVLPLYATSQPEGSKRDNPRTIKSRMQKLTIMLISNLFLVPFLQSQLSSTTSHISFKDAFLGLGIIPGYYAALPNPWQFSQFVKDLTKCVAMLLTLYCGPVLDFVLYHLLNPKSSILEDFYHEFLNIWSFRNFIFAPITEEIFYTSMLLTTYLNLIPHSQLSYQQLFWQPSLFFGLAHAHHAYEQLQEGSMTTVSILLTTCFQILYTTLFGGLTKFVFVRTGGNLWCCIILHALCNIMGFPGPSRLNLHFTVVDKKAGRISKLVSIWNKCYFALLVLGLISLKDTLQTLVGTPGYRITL
CSC inhib: blocks cancer stem cells. cancer stem cell-like cells viability, luminescence. 300,000 tested, 1.1% active. inhibition, % at 7.5 µM;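 active = mean at 75% or more and at least half the replicates too; inconclusive = mean and replicates disagree; tested in HMLE shEcad cells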;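 also: 0% = median of negative and 100% = median of positive control wells; the first replicate is given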
MT1-MMP act inh: blocks activation of human MT1-MMP | P50281 | HT1080 RFP-PRO-GFP cells, GFP/RFP ratio fluorescence, overnight; percent of plate control window, DMSO zero | GFP/RFP ratio change, % at 20 µM | 360,000 tested, 0.061% active;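 active = GFP/RFP ratio change of at least 30% with cell ATP level not reduced by more than half and red fluorescence within 50% of control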; also: strong numbers were not always called active
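Read-out: GFP/RFP fluorescence ratio; Test system: RFP-PRO-GFP reporter HT1080 cells; Compound dosing: single-point 20 µM compound, 1% DMSO; Times: overnight compound exposure at 37 °C.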
HIV Env fusion: HIV envelope-mediated fusion inhibition; HeLa-JRFL Env/CEM21 cell fusion, luciferase; inhibition, % at 12.3 µM; 360,000 tested, 1.1% active; AID 651610;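 active = mean replicate inhibition score of at least 50 and every replicate individually at or above 50; inconclusive = only one of the two criteria met; inactive = mean below 50 and not all replicates reaching 50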;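 also: 0% = plate neutral controls and 100% = maraviroc near 300 nM; one replicate is shown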
PABP FP inh: blocks human PABP binding to poly(A) RNA | P11940 | fluorescence polarization | inhibition, % at 35 µM | 290,000 tested, 1% active | AID 2014;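 active = 50% or more with normal probe brightness, or confirmed in later tests; inconclusive = above 50% with abnormal brightness, or retests that disagree; inactive = below 50% or failed in later tests; about a fifth of its hits are not listed in these tables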;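 also: calls also rest on retests at 20 µM and on dose response follow-up; controls were probe without protein and protein plus probe with vehicle; some compounds called inactive have numbers as strong as hits; many hits fall short of the cut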
Target sequence (P11940 whole entry, looked up): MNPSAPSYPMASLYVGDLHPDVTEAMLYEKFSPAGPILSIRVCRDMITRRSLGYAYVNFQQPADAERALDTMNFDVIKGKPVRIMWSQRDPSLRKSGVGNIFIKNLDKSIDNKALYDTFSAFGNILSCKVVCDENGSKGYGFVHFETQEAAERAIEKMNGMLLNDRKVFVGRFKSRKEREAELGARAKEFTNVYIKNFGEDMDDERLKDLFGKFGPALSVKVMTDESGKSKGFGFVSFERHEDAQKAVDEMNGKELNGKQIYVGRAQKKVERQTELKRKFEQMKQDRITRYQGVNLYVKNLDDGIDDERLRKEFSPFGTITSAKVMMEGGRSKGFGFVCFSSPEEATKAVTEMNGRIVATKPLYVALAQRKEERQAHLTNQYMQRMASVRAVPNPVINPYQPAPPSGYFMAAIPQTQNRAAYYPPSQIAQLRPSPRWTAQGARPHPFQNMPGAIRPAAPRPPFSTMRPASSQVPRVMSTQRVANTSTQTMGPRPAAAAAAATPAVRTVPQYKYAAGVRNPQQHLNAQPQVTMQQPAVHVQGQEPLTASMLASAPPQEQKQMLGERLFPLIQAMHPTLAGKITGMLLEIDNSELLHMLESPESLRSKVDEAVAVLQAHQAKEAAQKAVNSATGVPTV
UUG fidelity: modulators of start codon recognition fidelity in yeast; S. cerevisiae UUG-firefly luciferase reporter, luminescence/redox ratio; activity score, % at 18.7 µM; 350,000 tested, 0.13% active;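 active = replicate mean at a twofold rise or more, about +100% in these data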;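 also: firefly luciferase made from a UUG start codon reports start codon fidelity; reporter light over untreated wells divided by growth signal over untreated wells; some hits fall short of that in this replicate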
eIF4H inh retest: further read-out of eIF4H inh, marked with its call; inhibition, %; compound at 20 µM; confirmation average;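 mean of two retest wells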
PABP FP inh retest: also measured in PABP FP inh; calls as there; inhibition, %; compound at 20 µM; confirmation repeats;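 mean of two retest wells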
MT1-MMP act inh RFP: recorded beside MT1-MMP act inh, whose call it bears; RFP signal change, %; measured here: RFP expression control read;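 0 = vehicle wells; hits needed this value within 50% of zero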
An asterisk follows results filed as active; i = inactive; ? = inconclusive; · = not tested or not shown; + = active, no number; & = joins results of further samples. An excerpt; rates above refer to the full screens.

SMILES | eIF4H inh | Rce1 inhib | CSC inhib | MT1-MMP act inh | MT1-MMP act inh RFP | HIV Env fusion | PABP FP inh | UUG fidelity | others
C=CCn1c(O)c(C(CC)=NCc2ccco2)c(=O)[nH]c1=O | -8.6 | i | -1.1 | 5.0 | 5.2 | 17.0 | 0.6 | 1.6
COc1cc2c(c(OC)c1)C(=O)OC(C)CCCC(=O)CCCCC2 (configuration not stated) | -6.7 | i | -4.1 | -2.9 | -1.1 | 22.5 | 2.0 | -12.6
O=C(CN1CC=C(c2ccccc2)CC1)Nc1cc(Cl)ccc1Cl | 0.2 | i | 55.4 | -7.3 | -2.3 | -2.7 | 3.9 | ·
Cc1ccc(-n2c(O)c(C=NCc3ccco3)c(=O)[nH]c2=S)cc1C | -0.9 | i | 0.5 | -5.5 | 6.3 | 17.8 | 6.6 | ·
CCCNC(=O)N1[C@H]2CC[C@@H]1C(C(=O)OC)=C(c1cccc(C#N)c1)C2 | · | · | 6.7 | · | · | 6.0 | · | -10.3
Clc1ccc2c(c1)C(c1ccccc1Cl)=NCc1nnc(N3CCN(CCSc4ccccc4)CC3)n1-2 | 4.8 | i | 13.0 | 11.7 | 1.1 | · | -1.6 | 4.4
CCOC(=O)C1C(=O)N(C)C2(C)CC1c1ccccc1O2 (configuration not stated) | -4.8 | i | -5.4 | 1.2 | 1.1 | -45.0 | -8.3 | ·
Cc1onc(-c2ccccc2)c1C(=O)N1CCC2(CC1)OCCO2 | -9.4 | i | 0.2 | 2.0 | 2.0 | · | -3.7 | -18.6
Cn1cccc1CN1CCN(C(=O)COc2ccccc2)CC1 | 8.1 | i | · | 1.0 | -1.0 | · | 5.7 | -7.6
CC1=C(C(=O)O)N2C(=O)[C@@H](NC(=O)CCCC(=O)O)[C@H]2SC1 | -1.2 | i | -8.7 | -1.0 | 0.4 | · | -4.6 | -18.5
COC(=O)C1=C(N)Oc2c(c(=O)oc3ccccc23)[C@]12C(=O)N(C)c1ccccc12 | -3.2 | i | -4.2 | -0.5 | 3.8 | · | -1.9 | 7.2
CCN(CC)P(=O)(NC(=O)C(Cl)(Cl)Cl)N(CC)CC.[Cl-].[Cl-].[Cl-].[Nd+3] | -3.4 | i | -7.2 | 4.6&-3.2 | 5.1&0.2 | -6.3&-150.4 | 23.0 | -11.9
C/C(=C\c1ccc(N(C)C)cc1)[N+](=O)[O-] | 11.4 | i | -0.3 | -17.0 | -9.3 | · | -4.1 | ·
CC1CC(OC(=O)c2ccccc2)(c2ccccc2)C(C)CN1C (configuration not stated) | -11.2 | i | -12.3 | -4.4 | -1.4 | 14.2 | -0.2 | ·
COc1ccc(NC(=O)N2C[C@@H]3C[C@@H](C2)c2cccc(=O)n2C3)cc1 | 2.6 | i | -1.4 | 4.0 | -1.0 | · | -17.3 | -11.4
O=c1oc2ccccc2c(O)c1[C@H]1c2ccc(O)cc2Oc2c1c(=O)oc1ccccc21 | 11.2 | i | 42.5 | -5.5 | 0.7 | 15.6 | 17.3 | -17.2
CCCNC(=O)N1[C@H]2CC[C@@H]1C(C(=O)OC)=C(c1ccc(S(C)(=O)=O)cc1)C2 | · | i | -0.3 | -1.7 | 1.6 | -3.8 | · | -15.0
COc1cccc(C(c2nnnn2Cc2ccccc2)N2CCC(n3c(=O)[nH]c4ccccc43)CC2)c1OC (configuration not stated) | · | · | · | -18.1 | -6.0 | -36.2 | · | -8.3
Cc1ccc2c(c1)N(C(=O)CCC(=O)N1CCC3(CC1)OCCO3)CC(C)O2 (configuration not stated) | -6.1 | i | -4.5 | -3.7 | -4.3 | -2.1 | 8.5 | -20.5
CC(C)C(=O)c1cn(Cc2ccc(C#N)cc2)c2ccccc12 | -7.7 | i | 32.9 | -0.4 | -0.5 | · | -17.2 | -5.5
Cc1c(C(=O)N2CCC3(CC2)OCCO3)sc2ncnc(N(C)c3ccccc3)c12 | -5.5 | i | -12.4 | -3.8 | -5.0 | · | 3.2 | -1.8
COC(=O)C1=C(c2ccc(S(C)(=O)=O)cc2)C[C@@H]2CC[C@H]1N2C(=O)NCc1ccc(F)cc1 | · | i | -25.6 | -1.8 | -2.6 | -1.6 | · | -1.9
CCCN(CCC)C(=O)Cc1c(-c2ccc(Cl)cc2)nc2c(Cl)cc(Cl)cn12 | · | · | -5.1 | 0.1 | 1.3 | 14.2 | · | -6.5
C=CCN1C(=O)c2ccccc2Sc2ccc(C(=O)N3CCC4(CC3)OCCO4)cc21 | -2.8 | i | -14.6 | 5.2 | -6.0 | · | -6.4 | 3.5
COC(=O)C1=C(c2ccc(S(C)(=O)=O)cc2)C[C@@H]2CC[C@H]1N2C(=O)N1CCC(C)CC1 | · | i | 0.7 | 0.3 | -0.9 | -34.0 | · | -7.5
CN(C)P1(=O)N(C)CCN1C | · | · | · | 6.5 | 8.5 | -23.2 | · | -12.9
COc1ccc(OC)c(/C=N/OC(=O)Nc2ccc(Cl)cc2)c1 | -7.6 | i | 32.7 | -1.6 | 0.5 | 9.4 | -0.6 | ·
CCNc1nc(Cl)nc(NC(C)C)n1 | -6.1 | i | -12.2 | 2.3 | 4.4 | -89.6 | 4.4 | ·
COc1ccc(CN2CCCCC2c2cccnc2)cc1C (configuration not stated) | -2.9 | i | -0.5 | 2.9 | 0.1 | -3.4 | 3.6 | -1.6
Cc1nnc2n1-c1ccc(Br)cc1C(c1ccccc1Cl)=NC2 | -5.2 | i | -3.6 | 6.2 | 2.1 | · | -2.9 | -6.7
CC(=O)[C@H]1CCC2C3CC[C@H]4C[C@@H](O)CC[C@]4(C)C3CC[C@@]21C (some centres not stated) | · | · | -0.5 | 11.5 | -2.8 | -0.5 | · | -27.2
CN1Cc2c(c(C#N)c(N)n(C)c2=S)CC1(C)C | ? | i | -4.8 | -23.9 | 0.8 | · | ? | ·
O=P(O)(O)Cc1ccccc1OP(=O)(c1ccccc1)c1ccccc1 | -9.0 | i | -6.7 | -1.8 | 1.8 | -45.9 | 3.2 | -13.9
CCSc1cc(C2C(C#N)=C(N)Oc3n[nH]c(C)c32)c(C)o1 (configuration not stated) | 0.2 | i | -12.7 | -0.3 | -2.9 | -104.0 | 7.0 | 1.1
CN1C2C=C(N(C(=O)c3ccc(Cl)cc3)c3ccccc3)CC1CC2 (configuration not stated) | 0.2 | i | -4.3 | -0.8 | 3.2 | · | 12.7 | 7.4
CCCCCn1c(=O)c(C(=O)NCc2ccc(Cl)cc2)c(O)c2ccccc21 | 12.7 | i | 66.8 | -6.1 | -11.7 | -3.2 | -2.3 | 2.5
COC(=O)C1=C(c2ccc(OC)c(OC)c2)C[C@@H]2CC[C@H]1N2C(=O)NCC1CC1 | · | · | -23.1 | 0.5 | 0.0 | 1.0 | · | -5.9
c1ccc(-c2[nH]c[n+](CC3CO3)c2-c2ccccc2)cc1 (configuration not stated) | -39.5 | · | -1.7 | · | · | · | -6.9 | ·
O=C1NC(=O)N(c2ccccc2)C(=O)/C1=C/c1ccc2c(c1)Cc1ccccc1-2 | 42.6 | i | -1.1 | · | · | · | 1.6 | ·
CCOP(=O)(OCC)C(NC(=O)c1ccccc1Cl)=C(Cl)Cl | -6.8 | i | -10.7 | -0.6 | 1.2 | -52.0 | 7.6 | -2.4

The final three compounds of the part above are carried over, then new ones follow:
SMILES | eIF4H inh | Rce1 inhib | CSC inhib | MT1-MMP act inh | MT1-MMP act inh RFP | HIV Env fusion | PABP FP inh | UUG fidelity | others
c1ccc(-c2[nH]c[n+](CC3CO3)c2-c2ccccc2)cc1 (configuration not stated) | -39.5 | · | -1.7 | · | · | · | -6.9 | ·
O=C1NC(=O)N(c2ccccc2)C(=O)/C1=C/c1ccc2c(c1)Cc1ccccc1-2 | 42.6 | i | -1.1 | · | · | · | 1.6 | ·
CCOP(=O)(OCC)C(NC(=O)c1ccccc1Cl)=C(Cl)Cl | -6.8 | i | -10.7 | -0.6 | 1.2 | -52.0 | 7.6 | -2.4
CCC(=O)N1CCN(CCN=Cc2c(O)n(C)c(=O)n(C)c2=O)CC1 | 1.6 | i | -9.1 | -6.1 | 2.2 | 12.9 | 5.9 | -19.7
N/C(=N/[N+](=O)[O-])N1CCN(C(=O)c2ccc(Cl)cc2)CC1 | -1.6 | i | -7.2 | 1.1 | 1.7 | -1.1 | -3.1 | ·
COc1cc2c(cc1OC)C(C(=O)NC(C)C)C1CCCCN1C2=O (configuration not stated) | -3.6 | i | 19.4 | 4.6 | 6.5 | -5.7 | -3.8 | -14.2
COc1ccccc1N1C(=O)CC(=O)NC1=O | ? | i | -11.4 | -2.2 | 5.6 | -3.8 | ? | -19.9
O=C(O)CCCOc1ccc(Cl)cc1Cl | · | · | · | 1.8 | 1.2 | -38.4 | · | -6.2
COc1ccc(OC)c(N2C(=O)NC(=O)C(CCc3ccncc3)(CCc3ccncc3)C2=O)c1 | 1.1 | i | 3.4 | 3.3 | 2.1 | · | -2.0 | -12.9
CN(C)CCNC(=O)c1cccn(Cc2cc(C(F)(F)F)cc(C(F)(F)F)c2)c1=O | -4.6 | + | 1.0 | 1.2 | 0.1 | 23.9 | -2.2 | ·
Cc1ccnc(NS(=O)(=O)c2ccc(N=Cc3c(O)n(C)c(=O)n(C)c3=O)cc2)n1 | ? | i | -15.6 | -42.2 | 2.5 | 18.3 | 17.8 | ·
O=C(O)CCn1cc(C=C2C(=O)NC(=O)NC2=O)c(-c2ccc(Br)cc2)n1 | -9.0 | i | -14.2 | -0.2 | 1.5 | · | 6.8 | -14.8
CCCCNC(=O)Nc1ccc(C(O)(C(=O)OC)C(F)(F)F)cc1 (configuration not stated) | -2.1 | i | -7.7 | 1.2 | 3.3 | -44.0 | 4.0 | -18.8
Cc1cc(OC(=O)c2cccs2)c2c3c(c(=O)oc2c1)CCCC3 | -6.2 | i | 7.7 | 3.7 | -15.3 | -3.7 | -3.4 | ·
O=C(O)C1CC2(Cl)C(Cl)=C(Cl)C1(Cl)C2(Cl)Cl (configuration not stated) | · | · | · | -1.5 | 4.4 | -11.2 | · | -20.7
Nc1c(C(=O)NCC2CCCO2)c2nc3ccccc3nc2n1Cc1ccco1 (configuration not stated) | 30.3 | i | 4.9 | -35.9 | 11.1 | 4.9 | 34.0 | -9.2
CC(C)CNc1c2c(nc3ccccc13)CCC2 | -7.8 | i | -2.3 | 1.7 | -1.6 | -38.9 | 4.1 | -0.5
O=C(O)[C@H]1NC[C@H]2C[C@H]21 | -2.9 | i | -3.1 | 0.6 | 4.5 | -6.5 | 3.3 | -29.5
CCCCNC(=O)CN1C(=O)CN=C(c2ccccc2)c2ccccc21 | -5.0 | i | -9.2 | 1.1 | -0.7 | 23.1 | 2.0 | -8.9
CC(C)CNC(=O)c1c(N)n(Cc2ccco2)c2nc3ccccc3nc12 | 125.1 | i | 64.7 | -97.7 | 5.5 | 24.2 | 118.6 | -6.5 | eIF4H inh retest=-6.3;PABP FP inh retest=19.6
O=[N+]([O-])c1ccccc1CN1CC=C(c2ccc(F)cc2)CC1 | 0.9 | i | -18.3 | -1.5 | -1.8 | -14.9 | 0.4 | -22.1
CN1C(=O)CN=C(c2ccccc2Cl)c2cc(Br)ccc21 | -9.4 | i | -6.7 | 0.0 | -2.8 | -5.3 | -1.4 | -13.6
CN1CCCC(C(=O)c2ccccc2)C1 (configuration not stated) | 3.4 | i | -11.0 | 2.1 | 3.9 | 1.5 | -2.8 | -4.7
